TRPV1 PAM – potentiators of human vanilloid receptor 1 (TRPV1). AID 540277. Q8NER1. TRPV1-expressing cells, Fluo-8 calcium influx, capsaicin EC20 potentiation; host cell line not named in the record; control for the full effect not named in the record. potentiation, % at 8.33 µM. hit rate 0.02% among 320,000; active means potentiation above 80%; inconclusive means 30% to 80%; inactive means below 30%; further: 0% is about no effect
Target sequence (Q8NER1 whole entry, looked up): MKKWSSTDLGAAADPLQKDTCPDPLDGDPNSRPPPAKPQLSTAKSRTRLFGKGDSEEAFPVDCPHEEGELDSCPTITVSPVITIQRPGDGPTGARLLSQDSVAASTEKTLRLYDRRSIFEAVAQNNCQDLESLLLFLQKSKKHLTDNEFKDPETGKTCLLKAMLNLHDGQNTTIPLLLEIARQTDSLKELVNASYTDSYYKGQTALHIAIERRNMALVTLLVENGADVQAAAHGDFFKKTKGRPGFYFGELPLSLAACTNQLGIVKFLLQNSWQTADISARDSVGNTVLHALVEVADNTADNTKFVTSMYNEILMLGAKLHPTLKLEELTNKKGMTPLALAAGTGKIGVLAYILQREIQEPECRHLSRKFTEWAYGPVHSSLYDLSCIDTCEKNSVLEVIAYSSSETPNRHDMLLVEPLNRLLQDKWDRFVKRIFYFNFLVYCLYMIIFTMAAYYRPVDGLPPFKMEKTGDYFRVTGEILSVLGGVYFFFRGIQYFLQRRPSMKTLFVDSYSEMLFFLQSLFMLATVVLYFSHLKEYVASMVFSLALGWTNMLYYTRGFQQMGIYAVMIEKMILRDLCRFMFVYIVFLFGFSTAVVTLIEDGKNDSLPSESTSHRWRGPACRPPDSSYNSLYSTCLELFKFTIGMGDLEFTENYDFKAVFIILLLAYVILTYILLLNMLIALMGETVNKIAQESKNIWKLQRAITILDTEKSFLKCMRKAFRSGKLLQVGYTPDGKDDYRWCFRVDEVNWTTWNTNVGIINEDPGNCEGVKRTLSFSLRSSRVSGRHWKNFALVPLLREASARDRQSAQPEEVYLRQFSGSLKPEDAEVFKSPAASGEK
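Cells expressing TRPV1 were dye-loaded with Fluo-8 and read kinetically: 10 s baseline, 3 min after compound (agonist portion), then 2 min after EC20 capsaicin (allosteric enhancer portion). Calcium-bound dye fluorescence at 480/520 nm.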
gsp antag – antagonizes gsp, the McCune-Albright syndrome mutation | gsp-mutant cells, cAMP HTRF, 30 min; control for the full effect not named in the record | Potency, µM (highest dose often 76.9 µM), for inactives: top-dose activity change, negative = inhibition, most hits filed as inhibitors | hit rate 0.4% among 340,000; active = falling curve of any shape with a large fitted effect; inconclusive = falling curve, mostly with a smaller effect; inactive = flat or rising curve; cell line not stated here;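 further: intracellular cAMP measured with PDE inhibitor Ro 20-1724 present during compound exposure; potency means the concentration at half of the fitted maximal effect; on the % scale 0 is the no-effect control and ±100 the full control effect; nearly all actives have a fitted effect of over 65% in size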
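Cells in G418 medium, seeded 16-24 h, 37C; buffer exchange to DPBS + 1 mM CaCl2, 0.5 mM MgCl2, 0.05% BSA; cpds in DMSO + […] (300 uM stock), 30 min 37C; HTRF cAMP detection.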
Sfp PPTase inh – blocks B. subtilis Sfp PPTase activity; Q9F4F7; Biochemical Sfp PPTase activity, qHTS; Potency, µM, for the others: max response, negative = inhibition, hits mostly inhibitors; hit rate 3.5% among 310,000; AID 1490; active means well fitted inhibition curve with a large enough effect; inconclusive means small, poorly fitted or top-dose-only effect, or another doubt; inactive means no such curve, though single readings can be large or run the other way;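 further: the enzyme is Sfp with the accession as filed and its product quenches rhodamine fluorescence; potency means the concentration at half of the fitted maximal effect; 0% = enzyme reaction without inhibitor and -100% = no enzyme wells; top concentration of the series not given in the record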
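Step 1, compound plus 15 nM Sfp-PPTase, 15 min, room temperature. Step 2, add rhodamine-CoA (5 uM) and BHQ-2-YbbR (12.5 uM). Step 3, read 525/598 nm fluorescence at 0 and 30 min.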
Menin-MLL FL inh – menin-MLL binding inhibition, fluorescein peptide; Fluorescence polarization, fluorescein-MLL peptide displacement from menin; FP activity change, % at 61.4 µM; 290,000 tested, under 10 active; AID 1766; inconclusive = falling polarisation curve, or a change in total fluorescence; inactive = total fluorescence flat and polarisation flat or rising; no compound was filed as active; the % refers to the polarisation; negative = inhibition;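 further: % of control where 0% means no effect; inhibitors lower the polarisation; unlabelled MLL peptide was the positive control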
ClpP mod – qHTS Assay for Activators of ClpP. ATP-dependent Clp protease proteolytic subunit (Bacillus subtilis (strain 168)), P80244. purified B. subtilis ClpP, FRET peptide cleavage, 20 min. Potency, µM (doses to about 57.5 µM), for inactives: top-dose activity change, negative = active. hit rate 1.9% among 340,000. AID 651965, 2013; active = well fitted falling curve with a large enough effect; inconclusive = small, poorly fitted or top-dose-only effect; inactive = no such curve, though single readings can be large or run the other way; further: potency means the concentration at half of the fitted maximal effect; the source files actives as falling curves though it sought activators and does not explain the sign; nearly all actives have a fitted effect of over 65% in size; many hits overshoot -100%
Target sequence (P80244 whole entry, looked up): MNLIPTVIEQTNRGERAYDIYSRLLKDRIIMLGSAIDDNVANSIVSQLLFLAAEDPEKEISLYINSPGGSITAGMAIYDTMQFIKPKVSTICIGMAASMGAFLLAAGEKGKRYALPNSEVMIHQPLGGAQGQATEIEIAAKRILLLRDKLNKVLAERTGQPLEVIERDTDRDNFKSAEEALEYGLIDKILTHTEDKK
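FRET quenching reversal measured ClpP activation: 10 microg/mL B. subtilis ClpP at pH 8 with the FRET-FV decapeptide, read at 430 nm after 320 nm excitation. The 20-min minus 0-min signal was scaled between DMSO/no-enzyme wells and ADEP (5.8 microM final).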
gsp ag – agonists of gsp mutant (McCune-Albright syndrome); gsp mutant cells, cAMP HTRF, 30 min; control for the full effect not named in the record; Potency, µM (top dose mostly 76.9 µM), for inactives: top-dose activation (cAMP increase), actives largely listed as activators; hit rate 0.13% among 340,000; AID 624287; active = well fitted activation curve with a large enough effect; inconclusive = small, poorly fitted or top-dose-only effect, or another doubt; inactive = no such curve, though single readings can be large or run the other way; cell line not stated here;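 further: phosphodiesterase inhibitor Ro 20-1724 added with compounds to block cAMP breakdown; potency means the concentration at half of the fitted maximal effect; nearly all actives have a fitted effect of over 60% in size; about a fifth of the inactives were tested at one dose only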
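Cells in DMEM/10% FBS with G418 were pretreated with compounds in DMSO plus […] (300 uM stock) for 30 min at 37C. cAMP was measured by HTRF (cAMP-d2 plus anti-cAMP antibody-K) after 30 min at room temperature.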
CtBP-E1A blk – CtBP/E1A binding inhibition; AlphaScreen GST-E1A/His-CtBP binding, 1536-well; active compounds read low; control for the full effect not named in the record; activity change, % (no concentration beside the values); hit rate 0.49% among 340,000; AID 651724; in the data active means activity change below about -65%; inconclusive means about -30% to -65%; inactive means above about -30%; further: on the % scale 0 is the no-effect control and ±100 the full control effect
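Protein mix (5X: 125 nM each GST-E1A, His-CtBP) was incubated with pinned compound 2 h at 37 deg C in dark, in 50 mM Tris pH 8.0 buffer with 300 mM NaCl. Glutathione donor and nickel acceptor beads followed; AlphaScreen signal read after 1 h.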
Numbers without * were called inactive; ? = inconclusive; / = not tested or not shown; & = joins results of further samples; [ ] = another dose, or the depositor's remark.

Below each SMILES – TRPV1 PAM | gsp antag | Sfp PPTase inh | Menin-MLL FL inh | ClpP mod | gsp ag | CtBP-E1A blk
COc1ccc2c(c1)C(=O)Cc1ccccc1O2
  / | 6.5% | / | / | / | -2.1% | -22.9
Cn1c(SCC(=O)O)nc2ccccc2c1=O
  7.3 | 7.2% | 11.5% | -6.9 | -2.3% | 2.6% | -5.5
CCOc1ccccc1OCC(=O)NCc1ccco1
  2.6 | 0.2% | -17.1% | 3.1 | -2.5% | -5.2% | 0.6
C=CCNc1nnc(C)c2ccccc12
  -0.3 | 14.4% | 4.8% | 1.9 | -1.8% | -27.9% | 1.1
Cc1ccc(C(=O)COC(=O)c2cc(=O)[nH]c3ccccc23)cc1
  -0.7 | -3.5% | -3.1% | -0.6 | / | -17.3% | -7.7
Cc1ccc(Cn2c(SCC(=O)NCC3CCCO3)nc3c2c(=O)n(C)c(=O)n3C)cc1 (centres undefined)
  11.1 | 5.8% | -6.5% | -3.8 | -0.9% | 13.0%[15.4 µM] | -11.6
COc1ccccc1CNC(=O)c1ccc(SC)cc1OC
  -16.8 | ? | 8.3% | 0.7 | -0.8% | -29.4% | 2.0
CCC(=O)Nc1cc2nn(-c3ccc(OC)cc3)nc2cc1C
  -1.1 | 3.9% | 21.7% | 5.0 | 2.82µM* | 1.4% | 11.4
CCCn1nnc(NC(=O)c2cc(Br)cc(Br)c2OC)n1
  -27.6 | -3.1% | -2.0% | 4.6 | -0.5% | 4.1% | 40.3
O=C(Nc1ccc(S(=O)(=O)N2CCCCC2)cc1)C1CC(=O)N(c2ccc(Cl)cc2)C1 (centres undefined)
  4.7 | -11.1% | 20.4% | 9.2 | -1.6% | 1.2%[15.4 µM] | -14.3
Cc1cccc(N2CCC(N=CN(C)C)=N2)c1
  -2.0 | ? | ? | 0.1 | / | 1.9% | -0.5
O=C(CSc1nnnn1C1CC1)N1CCN(c2cccc(Cl)c2)CC1
  / | -24.6% | / | / | -0.7% | 0.1% | -4.8
CC(C(=O)N1CCc2ccccc2C1)N1C(=O)c2ccccc2C1=O (centres undefined)
  2.5 | 1.7% | 5.6% | 1.0 | -3.3% | 19.4% | /
COc1ccc(CCn2c(-c3ccc(C(C)(C)C)cc3)n[nH]c2=S)cc1OC
  -4.8 | / | -5.3% | -0.4 | / | 5.7%[15.4 µM] | 0.5
C[C@H](CO)N1C[C@H](C)[C@H](CN(C)S(=O)(=O)c2ccc(Cl)cc2)OCc2cnnn2CCCC1=O
  / | / | / | / | -3.4% | -35.6%[inhibitor] | -7.5
CS(=O)(=O)N1CCN(c2ccccc2NC(=O)c2ccc([N+](=O)[O-])o2)CC1
  13.9 | -18.5% | 4.7% | 0.1 | / | 0.3%[15.4 µM] | /
CON(C)C(=O)C[C@@H]1C[C@H](OC(=O)c2ccc([N+](=O)[O-])cc2)CN1C(=O)OC(C)(C)C
  / | -9.4% | / | / | 0.2% | -44.3% | 0.4
COc1ccccc1Nc1nc(=O)[nH]nc1C
  -6.1 | 13.9% | 4.8% | 1.0 | -0.7% | -15.6% | 1.0
COc1ccc(NC(=O)C2CCCN(C)C2)cc1OCC(C)C (centres undefined)
  -18.0 | 3.2% | 4.5% | 1.6 | -0.3% | -43.8%[inhibitor] | -0.5
COc1ccc(CCNS(=O)(=O)c2cccc(C(=O)O)c2)cc1OC
  3.1 | -4.3% | 12.8% | -2.5 | 0.2% | -21.8% | 12.0

Record cards, as listed above:
CS(=O)(=O)N1CCN(c2ccccc2NC(=O)c2ccc([N+](=O)[O-])o2)CC1 reads TRPV1 PAM = 13.9; gsp antag = -18.5%; Sfp PPTase inh = 4.7%; Menin-MLL FL inh = 0.1; ClpP mod = /; gsp ag = 0.3%[15.4 µM]; CtBP-E1A blk = /
COc1ccc(CCNS(=O)(=O)c2cccc(C(=O)O)c2)cc1OC reads TRPV1 PAM = 3.1; gsp antag = -4.3%; Sfp PPTase inh = 12.8%; Menin-MLL FL inh = -2.5; ClpP mod = 0.2%; gsp ag = -21.8%; CtBP-E1A blk = 12.0

Further structures
Below each SMILES – TRPV1 PAM | gsp antag | Sfp PPTase inh | Menin-MLL FL inh | ClpP mod | gsp ag | CtBP-E1A blk
C=CC[n+]1c(/C=C/c2ccc(OC(C)=O)c(OC)c2)ccc2ccccc21
  -1.0 | -12.2% | 6.2% | 5.5 | -1.1% | -9.5% | /
COc1ccc(NC(=O)CSc2nc3cccnc3n2C)cc1
  11.6 | -4.6% | -7.9% | 0.0 | / | 1.0% | 0.0
Cc1cc(C)cc(N(CC(=O)Nc2ccc(C)cc2Cl)S(=O)(=O)c2c(C)[nH]c(=O)[nH]c2=O)c1
  12.1 | -19.7% | 10.3% | / | 0.2%&-0.2% | 15.1% | -20.8
COc1ccc(CN2CC(C(=O)NCc3cccc(OC)c3)CC2=O)cc1 (centres undefined)
  -5.9 | -7.6% | 4.6% | 3.1 | 0.0% | 12.2% | 6.2
Cc1ccc2nsnc2c1NC(=O)c1ccc(-c2cc(Cl)ccc2Cl)o1
  -4.3 | -5.0% | 28.2µM* | 22.0 | -19.7% | 29.4% | 7.1
CCC1Oc2ccccc2N(CC(=O)NCC2CCCO2)C1=O (centres undefined)
  -0.8 | 10.0% | 19.0% | -1.0 | / | 6.0% | -3.1
Cc1ccc(S(=O)(=O)N2C(=O)C(C)SC2=Nc2ccccc2)cc1 (centres undefined)
  -1.3 | -4.7% | -14.8% | 4.9 | 1.2% | -56.7%[inhibitor] | 16.4
Cc1ccc(S(=O)(=O)Nc2ccccc2CNc2ccc(Br)cn2)cc1
  7.1 | -7.0% | 5.0% | 2.3 | -1.3% | ? | 2.3
O=C(CN1C(=O)c2ccc([N+](=O)[O-])cc2C1=O)NCC1CCCO1 (centres undefined)
  -6.1 | 8.9% | / | / | -3.8% | 2.9% | -11.2
Clc1nc(-c2n[nH]nc2Cl)n[nH]1
  11.6 | -3.3% | 4.8% | 2.8 | 0.2% | ? | 8.1
Oc1ccc(-c2cn3cc(C(F)(F)F)ccc3n2)cc1
  -3.9 | 16.2% | 5.9% | 2.0 | 28.2µM* | -14.5%[15.4 µM] | -9.6
O=C(O)c1cccc(-c2ccc(/C=N/NC(=O)c3cccnc3)o2)c1
  18.6 | -18.4% | ? | 9.5 | ? | -34.5% | -5.0
NC(=O)c1ccsc1NC(=O)CN1CCN(S(=O)(=O)c2ccccc2C(F)(F)F)CC1
  / | 50.1µM* | / | / | 0.9% | 15.1% | /
CCc1ccc(NC(=O)C(C)OC(=O)c2ccc(-n3cnnn3)cc2)cc1 (centres undefined)
  5.6 | 5.4% | / | / | / | -4.7%[15.4 µM] | -0.5
CSc1cccc(NC(=O)CCS(=O)(=O)c2cccc3nonc23)c1
  -11.8 | -1.2% | 3.3% | 3.3 | / | 9.2%[15.4 µM] | 3.8
Cc1cc(NS(=O)(=O)c2ccc(NS(=O)(=O)c3cc(C)c(Cl)cc3Cl)cc2)no1
  -5.1 | 3.9% | 15.3% | / | 0.5% | -5.2%[15.4 µM] | -0.7
CC1CC(C)CN(CCCNC(=O)c2c(O)nc3ccccn3c2=O)C1 (centres undefined)
  12.7 | 10.3% | / | / | / | 6.4%[15.4 µM] | 4.0
Cc1cc(NC(=O)CSc2nc3ccccc3c(=O)n2CCCC(=O)NCc2ccco2)n[nH]1
  / | 12.5% | 5.1% | 1.0 | -4.8% | -5.4% | -12.9
COc1ccccc1CNc1ccc2nnc(CCNC(=O)c3ccccc3)n2n1
  -4.0 | -3.9% | -7.2% | -1.8 | -1.5% | 2.6% | 2.4
CCN1CCN(C(=O)C2=CC(c3ccc(C)cc3)=NS(=O)(=O)N2C)CC1
  25.3 | 3.0% | -0.5% | 1.1 | -5.4% | -77.6%[inhibitor] | 0.1
COc1ccc(OC)c(-c2c3c([nH]c(=S)c2C#N)CCCC3)c1
  -7.0 | -11.6% | 22.4µM* | 2.4 | / | -9.5%[15.4 µM] | 2.3
COc1cc(NC(=O)C2CCCC2)c(OC)cc1Cl
  ? | -10.2% | 12.0% | 2.5 | 1.6% | -3.8%[15.4 µM] | 7.1
CCN(Cc1ccccc1)c1ccc(/C=N/N2CCOCC2)cc1
  -21.1 | -9.5% | -18.1% | 6.7 | / | 5.2% | ?
Cn1nccc1CNC(=O)c1c(Cl)cnn1C
  -8.9 | 2.6% | 2.5% | 4.8 | 1.0% | -0.4% | 0.0
Cc1cc(C)n(/N=C/c2cccc([N+](=O)[O-])c2)c(=O)c1
  -18.8 | 7.7% | -4.6% | 1.1 | 1.8% | -24.2% | 0.0
CCn1nc(NC(=O)c2ccncc2)c2cc3ccc(C)cc3nc21
  -8.9 | -4.4% | 10.2% | 0.9 | 49.9% | 2.9% | -15.3
O=C(COc1ccccc1Cl)NCCNC(=O)c1ccncc1
  3.3 | 14.6% | 15.6% | 2.1 | / | -3.5% | -13.9
CN1CCN(C(=O)c2cccn(Cc3ccc(C(F)(F)F)cc3)c2=O)CC1
  12.4 | 13.1% | 7.1% | -1.2 | -10.1% | 25.7% | /
O=C(NCc1ccccn1)c1cccs1
  -5.4 | 20.1% | 5.2% | 0.1 | 0.7% | 1.0% | 3.1
Cn1ncc(Br)c1NC(=O)Nc1ccccc1
  -20.8 | 6.4% | 3.8% | -17.1 | -0.1% | 20.1% | /
Cc1cccc2cc(/C=N/NC(=O)c3ccccc3O)c(Cl)nc12
  -24.0 | 1.0% | -11.3% | 0.8 | -7.8% | -34.0%[inhibitor] | -1.6
COc1ccc(C(=O)CSc2nnc(CNC(=O)c3ccccc3)o2)cc1
  -2.3 | -12.3% | 17.3% | / | 1.3% | -42.9%[inhibitor] | 4.1

Shown as a hit in Sfp PPTase inh (from the list above):
mol	Sfp PPTase inh	Menin-MLL FL inh	gsp ag	CtBP-E1A blk
Cc1ccc2nsnc2c1NC(=O)c1ccc(-c2cc(Cl)ccc2Cl)o1	28.2µM*	22.0	29.4%	7.1
COc1ccc(OC)c(-c2c3c([nH]c(=S)c2C#N)CCCC3)c1	22.4µM*	2.4	-9.5%[15.4 µM]	2.3

Bioassay records (PubChem)
